VDR inhibitor – inhibitors of human vitamin D receptor; Potency, µM, inactives show max response, negative = inhibition, most hits filed as inhibitors; P11473; VDR-SRC2-3 peptide fluorescence polarization, 2 h; actives 0.93% (n = 400,000); active = well fitted inhibition curve with a large enough effect; inconclusive = small, poorly fitted or top-dose-only effect, or another doubt; inactive = no such curve, though single readings can be large or run the other way; also: series mostly up to about 120 µM
Target sequence (P11473 whole entry, looked up): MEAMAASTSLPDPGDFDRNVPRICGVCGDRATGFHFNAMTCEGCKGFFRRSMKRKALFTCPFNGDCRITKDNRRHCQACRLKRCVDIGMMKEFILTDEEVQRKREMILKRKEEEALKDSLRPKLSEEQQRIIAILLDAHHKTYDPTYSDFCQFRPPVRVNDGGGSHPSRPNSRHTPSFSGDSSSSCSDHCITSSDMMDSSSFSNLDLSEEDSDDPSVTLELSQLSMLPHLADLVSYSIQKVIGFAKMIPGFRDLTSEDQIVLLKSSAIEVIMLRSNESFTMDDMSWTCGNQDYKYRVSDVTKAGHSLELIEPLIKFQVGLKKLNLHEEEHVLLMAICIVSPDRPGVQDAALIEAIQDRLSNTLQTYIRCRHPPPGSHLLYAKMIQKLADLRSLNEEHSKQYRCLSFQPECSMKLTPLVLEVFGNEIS
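After 23 nl compound addition and a short centrifugation, plates sat for 2 hours at ambient temperature; polarization of fluorescence then indicated loss of VDR binding to peptide SRC2-3.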
Active calls of the source: *; ? = inconclusive; & = joins results of further samples. % is scaled to controls: 0 for no effect and ±100 for the full control effect; potency is read from the fitted curve at half-maximal effect. Only part of the results is shown; count on the stated rates, not on these rows.

SMILES	VDR inhibitor
CC(NC(=O)CCCOc1ccc(Cl)cc1)c1ccccc1 (configuration not stated)	5.4%
O=C(c1nc2ccccn2c1CN1CCC(Cc2ccccc2)CC1)N1CCCC1	-5.7%
CN1CCN(CCCCOc2ccc(Br)cc2)CC1	-14.0%
CC(C)NC(=O)c1ccc2c(c1)N(CC(=O)N1CCCCC1)C(=O)C(C)(C)O2	10.5%
O=C(NCC1CCCO1)c1c(O)c2ccccc2[nH]c1=O (configuration not stated)	3.3%
Cc1cccc2c1-c1sc(C(=O)N(C)c3cccc(Cl)c3)cc1CO2	-12.1%
Cc1noc(C)c1C(=O)Nc1ccc(C#N)cc1	-3.2%
CCc1ccc([C@@H]2CC=C(C(=O)O)[C@H](c3ccc(C)cc3)N2S(=O)(=O)c2ccc(C)cc2)cc1	-0.3%
CC(C)(CNC(=O)CC1C(=O)NCCN1Cc1cccc(F)c1)N1CCOCC1 (configuration not stated)	-10.1%
Cn1c(=O)c2ncn(CC(=O)N/N=C/C=C/c3ccccc3)c2n(C)c1=O	4.5%
COC(=O)c1ccc(N2C(=O)C3CC=CC(C)C3C2=O)cc1 (configuration not stated)	-20.9%
O=C(CSc1nc2ccccc2n1Cc1ccc(F)cc1)N1CCN(c2ccc(F)cc2)CC1	-5.7%
CCOc1cc(/C=N/NC(=O)c2ccc(CN3CCOCC3)cc2)ccc1OC	29.8%
COc1cc(/C=C2/SC(=Nc3ccc(O)cc3)NC2=O)ccc1O	-6.6%
Cc1ccc(C(=O)NC(=S)Nc2ccc(NC(=O)c3cccc(Cl)c3)cc2)cc1	4.2%
O=C(CSc1n[nH]c(=O)n1C1CC1)c1c[nH]c2ccccc12	-9.5%
CC(=O)N1CCN(c2nc(C)nc3sc4c(c23)CCC(C)C4)CC1 (configuration not stated)	-4.7%
COc1ccc2c3c(c(=O)oc2c1OCC(=O)O)CCCC3	-9.2%
COc1ccc(/C=N/Nc2cc(C)nc3ccc(Br)cc23)cc1	0.8%
Cc1ccc(S(=O)(=O)/N=C(/c2ccc(F)cc2)N2CCCCC2)cc1	-22.2%
CCN(C(=O)COC(=O)c1ccc(F)c(S(=O)(=O)N2CCOCC2)c1)C1CCS(=O)(=O)C1 (configuration not stated)	12.3%
COc1ccc(NC(=O)C2Cc3ccccc3CN2C(=O)c2ccccc2)cn1 (configuration not stated)	-9.4%
O=C(c1ccc(N2CCCC2=O)cc1)N1CCCCCC1	-12.1%
COC(=O)c1cc(Br)c(=O)n(CCc2ccc(F)cc2)c1	4.2%
COc1ccc2c(=O)cc(C(=O)O)oc2c1	-7.6%
COc1ccc(OCCSc2nc(N)cc(=O)[nH]2)cc1	-17.1%
COc1ccc(NC(=O)c2oc3ccccc3c2NC(=O)Cc2coc3ccc(C)cc23)cc1	-0.7%
Cc1ccc(-n2nc3c(=O)n(CCCC(=O)NCCc4ccccc4C)nc(C)c3c2C)cc1	-8.5%
CSc1nc(Cl)c(Br)c(Nc2c[nH]c(=O)[nH]c2=O)n1	5.2%
NC(CS(=O)O)C(=O)O (configuration not stated)	-25.1%
Cc1nnc(-c2cccc(Br)c2)c2cn(-c3cccc(Br)c3)nc12	-23.9%
Cc1ccc(NC(=O)CSc2cn(CC(=O)N3CCCC3)c3ccccc23)cc1Cl	1.2%
CCc1cc(=O)oc2c3c(cc(OCC(=O)NCc4cccnc4)c12)OC(C)(C)CC3	-5.5%
CCc1ccccc1N1CC(C(=O)Nc2cc(C)on2)CC1=O (configuration not stated)	-2.1%
CC(C)NCc1cc(Br)ccc1OCc1ccccc1	12.6%
Cc1cccc(NC(=O)c2nc[nH]c2C(=O)NCC(=O)OCc2ccccc2)c1	0.8%
O=C1CCC(C(=O)OCc2nnc(-c3ccc(Br)cc3)o2)=NN1	16.0%
C=CCN1CN(S(=O)(=O)c2ccc(OC)cc2)c2nc3ccccc3nc21	-7.5%
Cc1ccc(NNC(=S)Nc2ccc(C(C)C)cc2)c(C)c1	-17.2%
O=S(=O)(/N=C(/c1ccccc1)N1CCOCC1)c1ccc(Br)cc1	-12.7%
CN1CCN(c2ncc3nc(-c4ccccc4)c(=O)n(C)c3n2)CC1	-7.0%
CCNc1nc(NCC)nc(N(CC)C(N)=S)n1	-1.8%
OCC(CO)(CO)N=Cc1c(O)ccc2ccccc12	-19.3%
CC(C)OCCCNc1nc(-c2ccccc2)nc2ccccc12	0.4%
COc1ccc(CCNc2nc(-c3ccco3)cc(C(F)(F)F)n2)cc1OC	3.8%
O=C(O)CCC(=O)NCc1ccc(C(=O)O)cc1	-0.8%
CSc1nc(O)c(Nc2ccccc2)c(=O)[nH]1	?
COc1cccc(N2CCN(CC(=O)NC(C)c3ccccc3)CC2)c1 (configuration not stated)	23.6%

Grouped by structure: the entries above with an aryl thioether with sulfur outside any ring (6)
SMILES	VDR inhibitor
O=C(CSc1nc2ccccc2n1Cc1ccc(F)cc1)N1CCN(c2ccc(F)cc2)CC1	-5.7%
O=C(CSc1n[nH]c(=O)n1C1CC1)c1c[nH]c2ccccc12	-9.5%
COc1ccc(OCCSc2nc(N)cc(=O)[nH]2)cc1	-17.1%
CSc1nc(Cl)c(Br)c(Nc2c[nH]c(=O)[nH]c2=O)n1	5.2%
Cc1ccc(NC(=O)CSc2cn(CC(=O)N3CCCC3)c3ccccc23)cc1Cl	1.2%
CSc1nc(O)c(Nc2ccccc2)c(=O)[nH]1	?

(cont.)
SMILES	VDR inhibitor
Cc1ccc(C)c(Cn2c(=O)n(-c3ccc(CC(=O)NCc4ccco4)cc3)c(=O)c3sccc32)c1	-16.7%
Cc1ccc2nc(SCc3nnc(-c4ccccc4Br)o3)[nH]c2c1	6.4%
O=C(CN1C(=O)NC2(CCCC2)C1=O)NCc1ccco1	8.7%
COCCN(C(=O)c1csnn1)C(C(=O)NC1CCCCC1)c1cccs1 (configuration not stated)	-2.3%
O=C(CN1C(=O)C2CC=CCC2C1=O)NCc1cccs1 (configuration not stated)	12.3%
CCC(CC)C(=O)Nc1ccc(C(=O)c2ccccc2)cc1	-11.0%
COc1cccc(NC(=O)Nc2cc(C)on2)c1	5.4%
COc1ccc(CCNC(=O)CCCn2nc(C)c3sc4ccccc4c3c2=O)c(OC)c1	-8.9%
C=CCNC(=O)CCCOc1cc(C)ccc1C	-24.9%
COC(=O)C1=CN(c2ccc(F)cc2)C=C(C(=O)OC)C1c1cccc(Br)c1	-4.3%
COc1ccc(/C=C/C(=O)Nc2ccc3nc4n(c(=O)c3c2)CCCC4)cc1OC	-3.5%
Cc1nn(-c2ccccc2)c2c1C(c1ccccc1)C(C#N)=C(N)O2 (configuration not stated)	-13.9%
CCN(CC)c1nc2ccccc2n(Cc2cccc(OC)c2)c1=O	-5.5%
CC(=O)Nc1ccc(NS(=O)(=O)c2ccc(-c3csc(C)n3)s2)cc1	-9.0%
CCc1ccc(NC(=O)Nc2ccc3c(c2)N(C)C(=O)CS3)cc1	?
CCc1cc(=O)oc2cc(OCC(=O)NCCCn3ccnc3)c(Cl)cc12	-19.0%
CCN(CC)S(=O)(=O)c1cccc(C(=O)Nc2sc3c(c2C#N)CCC(C)C3)c1 (configuration not stated)	5.4%
C=CCNc1oc(-c2ccc(OCC)cc2)nc1C#N	6.0%
CCc1nn(CC(=O)N2CCN(c3cccc(OC)c3)CC2)c(=O)c2cc3occc3n12	13.2%
Cc1ccc(-n2nc(C)c3c(C)c(CCC(=O)NCc4cccc(Cl)c4)c(C)nc32)cc1C	-1.3%
COc1ccc(/C=N\NC(=O)c2cc(O)c(O)c(O)c2)cc1COc1ccc(C(=O)OCC(C)C)cc1	-7.5%
CS/C(=C/[N+](=O)[O-])Nc1cccc2c1C(C)CC2(C)C (configuration not stated)	-18.9%
Nc1nnnn1-c1cccc([N+](=O)[O-])c1	-3.2%
N#C/C(=C(/O)CSc1nnc(Cc2cccs2)n1C1CCCCC1)c1nc2ccccc2[nH]1	23.1%
CCOc1ccccc1N1CC(C(=O)N(CC)C2CCS(=O)(=O)C2)CC1=O (configuration not stated)	7.9%
Cn1nccc1C(=O)NCCN1C(=O)OC(C)(C)C1(C)O (configuration not stated)	-17.0%
COCC(C)NC(=O)/C=C/c1ccc(OC)cc1 (configuration not stated)	5.5%
CCCNC(=O)c1ccccc1NC(=O)c1ccccc1N(C)S(=O)(=O)c1ccc(C)cc1	-14.6%
COc1ccc(-c2nn(-c3ccccc3)cc2CNC(C)Cn2cncn2)c(F)c1 (configuration not stated)	-7.3%
COc1ccc(NCc2nnc(SCC(=O)c3ccc(C)cc3)o2)cc1	?
O=S(=O)(Nc1ccc(-n2cnnn2)cc1)c1ccccc1F	-7.2%
CC(C)CCN1CCN(Cc2cc3ccccc3[nH]2)CC1CCO (configuration not stated)	-6.5%
O=C(NNc1nc2ccccc2o1)c1ccccc1	-3.2%
COc1cc(/C=C/C(=O)O)cc(OC)c1OC	3.9%&-0.5%
CCN1C(=O)[C@@H]2[C@@H](c3ccc(-c4ccc(C(C)=O)cc4)cc3)N3CCC[C@@]3(C(=O)OC)[C@@H]2C1=O	4.1%
O=C(c1[nH]c2ccccc2c1Sc1ccc(Cl)cc1)N1CCCCC1	2.3%

Some values from the results shown.
Under VDR inhibitor, COCC(C)NC(=O)/C=C/c1ccc(OC)cc1 (configuration not stated) is listed with 5.5%
Under VDR inhibitor, O=C(c1[nH]c2ccccc2c1Sc1ccc(Cl)cc1)N1CCCCC1 is listed with 2.3%

(next part)
SMILES	VDR inhibitor
COc1ccc(C2CC(=O)c3c(C)nc(N4CCN(c5ccccc5)CC4)nc3C2)cc1 (configuration not stated)	-12.8%
Cc1ccc(OCC(=O)O)c(O)c1	-15.8%
COc1cc(CC(=O)N(CC(C)C)C2CCS(=O)(=O)C2)cc(OC)c1OC (configuration not stated)	6.0%
COc1cc([C@H](Cc2ccccc2)NC(C)=O)oc(=O)c1	-0.4%
COc1ccc(S(=O)(=O)N2CCOC23CCN(C(=O)c2ccccc2OC)CC3)cc1	6.5%
Cc1ccc(N2C(=O)c3ccc(C(=O)NCCN4CCOCC4)cc3C2=O)cc1	-15.3%
CC(C)[C@@H](CO)NC(=O)c1ccc2c3n(nc2c1)-c1ccccc1CO3	-7.2%
Cc1ccc(S(=O)(=O)N2C[C@@H]3[C@H]4CC[C@H](C4)[C@@H]3[C@@H](C)[C@H]2c2ccco2)cc1	-8.6%
Cn1c(=O)n(C)c2cc(N3CCOCC3)c(NC(=O)c3ccccc3Br)cc21	15.7%
COC(=O)N1CCC2(CCN(C(=O)NC(C)C)CC2)CC1	-1.1%
COCc1cc(C)nc(SC)c1C#N	1.4%
Cc1cc(NC(=O)c2ccc([N+](=O)[O-])cc2)n(CCC#N)n1	-14.7%
Cc1cc(Br)ccc1NC(=O)c1sc2ncn(Cc3ccccc3Cl)c(=O)c2c1C	18.7%
COc1ccc(/C=N/NC(=O)c2sccc2OCc2ccc(F)cc2)cc1OC	8.1%
COc1ccc(C(CNC(=O)COc2ccc(Cl)c(C)c2)N2CCOCC2)cc1 (configuration not stated)	-0.9%
Cc1ccc(NC(=O)c2ccc3c(c2)N(CC(=O)NC(C)C)C(=O)C(C)(C)O3)cc1	14.1%
CC(C)(C)OC(=O)NCCCC[C@H](NC(=O)c1nc[nH]c1C(=O)N[C@@H](CCCCNC(=O)OC(C)(C)C)C(=O)OC(C)(C)C)C(=O)OC(C)(C)C	-5.9%
CCC(Sc1nc2ccccc2c(=O)[nH]1)C(=O)Nc1ccc(C(C)=O)cc1 (configuration not stated)	2.3%
COc1ccc(-n2c(Cc3cccn3C)nnc2SCC(=O)Nc2cccc(OC)c2)cc1	-4.4%
CC(C)NC(=O)c1cccc(Br)c1	11.5%
COc1cccc(OC)c1C(=O)Nc1ccc(Cc2ccncc2)cc1	-10.4%
Cc1cc(C)nc(NS(=O)(=O)c2ccc(NC(=O)CN3C(=O)S/C(=C\c4ccccc4)C3=O)cc2)n1	-12.9%
C=C(C)Cn1c(CCCNC(=O)CC)nc2ccccc21	5.5%
CC(O)CNc1nc2c(c(=O)n(Cc3ccc(Br)cc3)c(=O)n2C)n1C (configuration not stated)	-18.5%
O=C(Nc1ccc(F)cc1)c1cccc(N2C(=O)C3C4C=CC(C4)C3C2=O)c1 (configuration not stated)	-19.8%
Cc1ccccc1-c1cn(-c2ccccc2)c(=S)[nH]1	-7.7%
Cc1ccc(C(=O)Nc2nc3ccccc3s2)s1	1.5%
COc1ccc(C(=O)OCC(=O)Nc2cccc(S(=O)(=O)NC3=NCCCCC3)c2)cc1[N+](=O)[O-]	-5.8%
CCOC(=O)C1CCCCN1Cc1cn[nH]c1-c1ccc(F)cc1F (configuration not stated)	-14.2%
Cc1ccc(NC(=O)CSc2nnc(Cc3cccn3C)n2-c2ccc(F)cc2)cc1	?
O=C1C2C3C=CC(C3)C2C(=O)N1c1nccs1 (configuration not stated)	-1.3%
CC(=O)c1sc2c(c1OC(=O)c1ccccc1)c(=O)n(-c1ccccc1)c(=S)n2-c1ccccc1	-22.0%
CCOc1ccc(-c2c(C)nn3c(C)c(C(=O)NCc4cccc(OC)c4)cnc23)cc1OCC	18.0%
CCOC(=O)c1sc(C)c2c(=O)n(CC(=O)c3ccc(Br)cc3)nnc12	5.8%
COc1cccc(-c2cc(C(=O)N3N=C(C)CC3(O)C(F)F)c3ccccc3n2)c1 (configuration not stated)	-19.4%

A different layout for two compounds above:
| structure | VDR inhibitor |
| --- | --- |
| CCOC(=O)c1sc(C)c2c(=O)n(CC(=O)c3ccc(Br)cc3)nnc12 | 5.8% |
| COc1cccc(-c2cc(C(=O)N3N=C(C)CC3(O)C(F)F)c3ccccc3n2)c1 (configuration not stated) | -19.4% |

Some of the entries so far, as comma-separated lines:
SMILES,VDR inhibitor
COc1ccc(C(=O)OCC(=O)Nc2cccc(S(=O)(=O)NC3=NCCCCC3)c2)cc1[N+](=O)[O-],-5.8%
CCOC(=O)C1CCCCN1Cc1cn[nH]c1-c1ccc(F)cc1F (configuration not stated),-14.2%
